# Bioassay records from PubChem BioAssay.
# rRNA inh HTS = inhibitors of bacterial rRNA selective over humanized ribosomes | E. coli WT GFP vs humanized-ribosome RFP mutants, fluorescence, 24 h; stronger effect = lower value; DMSO median 0, no signal -100 | GFP signal change (wild-type ribosome), % (concentration not given with the values) | actives 1.6% (n = 350,000) | AID 720706;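 active means significant combined selectivity score with lowered wild-type GFP, culture density cut under 30%, mutant RFP and density less affected; inactive means any of these conditions unmet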; further: one replicate is shown; some compounds called inactive have numbers as strong as hits
# HNF4A DNA FP = change in binding of human HNF4 alpha to DNA; P41235; HNF4a-FITC DNA binding, fluorescence polarization, 1 h; activity change, % at 10 µM; actives 0.3% (n = 360,000); in the data active means activity change above about 30%, passing the limit was not always enough;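 further: controls were the assay level and a saturating level of protein; the project sought stronger binding though the title names inhibitors; some compounds called inactive have numbers as strong as hits; positive values seem to mean higher polarization but the record does not say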
# Ecoli growth = blocks Escherichia coli growth; OD600, 23 h; stronger effect = lower value; OD600 absorbance (test concentration not listed); actives 0.21% (n = 330,000); AID 1053175;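 active means OD600 absorbance below the run mean of sample wells minus 3.6 SD, in any replicate, cut at about 0.56 in these data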;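 further: stock transfer was 300 nL into about 60 µL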
# ALR inh = inhibitors of human sulfhydryl oxidase ALR. purified ALR, DTT oxidation, H2O2 HRP-luminol luminescence. inhibition, % (test concentration not listed). actives 3.8% (n = 290,000);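 active means mean and each replicate at 75% or more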;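 further: stock transfer was 7.5 nL into about 7.5 µL; 0% = neutral wells and 100% = wells with inactivated enzyme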
# B2AR ag = agonists of human beta-2 adrenergic receptor inducing internalization; P07550; Am2.2-beta2AR cells, FAP receptor internalization, flow cytometry; reference of the scale not given here; response, % (test concentration not listed); actives 0.43% (n = 340,000); AID 504454;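 active means response above a set limit, near 3 SD of response in nonfluorescent compounds, cut at about 42% in these data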;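 further: stock transfer was 100 nL into about 11 µL; a reference agonist was the positive control; negative values mostly stem from fluorescent compounds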
# Target sequence (P07550 whole entry, looked up): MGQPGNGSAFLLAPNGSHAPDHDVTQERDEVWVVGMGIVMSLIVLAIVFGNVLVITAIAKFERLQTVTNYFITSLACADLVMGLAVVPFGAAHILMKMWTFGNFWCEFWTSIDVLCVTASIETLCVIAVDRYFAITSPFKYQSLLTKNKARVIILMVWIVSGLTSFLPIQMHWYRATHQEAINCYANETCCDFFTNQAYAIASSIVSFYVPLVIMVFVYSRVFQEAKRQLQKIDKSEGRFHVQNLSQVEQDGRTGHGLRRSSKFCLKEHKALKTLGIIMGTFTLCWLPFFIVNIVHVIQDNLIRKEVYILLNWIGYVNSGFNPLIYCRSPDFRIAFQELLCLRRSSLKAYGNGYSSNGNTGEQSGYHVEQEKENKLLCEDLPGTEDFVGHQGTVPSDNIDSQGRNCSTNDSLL
# FGF22 binding = FGF22 (human) thermal shift binding. calls only at 9.99 µM. recombinant FGF22 thermal shift, SYPRO orange fluorescence; percent of sucrose octasulfate shift, DMSO zero. actives 1.5% (n = 340,000);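 active means melting point raised past a set limit in the mean and every replicate; three in four hits are not shown here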
# Target sequence (Q9HCT0 whole entry, looked up): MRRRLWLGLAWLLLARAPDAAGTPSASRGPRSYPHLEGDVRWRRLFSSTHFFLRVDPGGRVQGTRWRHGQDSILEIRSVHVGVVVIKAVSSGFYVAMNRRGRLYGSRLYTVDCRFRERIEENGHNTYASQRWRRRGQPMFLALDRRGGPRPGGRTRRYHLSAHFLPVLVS
# UCH37 DUB inh = human UCH37 deubiquitinating enzyme inhibition; purified proteasome/UCH37, Ub-AMC cleavage fluorescence; inhibition, % (test concentration not listed); actives 0.33% (n = 330,000);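 active means mean of two replicates above 20%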;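 further: 0% = compound-free wells with enzyme and 100% = wells lacking proteasome; stock transfer was 100 nL into about 20 µL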
# Target sequence (Q9Y5K5 whole entry, looked up): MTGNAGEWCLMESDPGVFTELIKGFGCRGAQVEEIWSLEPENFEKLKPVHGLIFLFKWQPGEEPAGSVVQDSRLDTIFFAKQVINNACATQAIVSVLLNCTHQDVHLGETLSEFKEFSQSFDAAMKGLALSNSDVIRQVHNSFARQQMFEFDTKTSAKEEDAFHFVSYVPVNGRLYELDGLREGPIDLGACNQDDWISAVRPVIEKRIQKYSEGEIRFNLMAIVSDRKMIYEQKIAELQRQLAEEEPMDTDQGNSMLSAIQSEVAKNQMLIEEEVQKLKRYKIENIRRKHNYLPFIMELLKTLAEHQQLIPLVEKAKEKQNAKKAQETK
#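 System: Proteasome-associated human UCH37 deubiquitinase; Input: 0.15 nM proteasome in added enzyme buffer; Also added: Ub-AMC substrate from 1 µM stock; Incubation: 30 min compound-proteasome preincubation then 25 min substrate reaction, room temperature; Detection: fluorescence, ex 355 nm, em 460 nm; Read-out: % inhibition of Ub-AMC cleavage fluorescence; Benchmarks: no-proteasome and no-compound wells.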
# rRNA inh HTS OD600 = recorded beside rRNA inh HTS, whose call it bears; OD600 change, %; measured here: OD600 growth;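 optical density of the mix in the first replicate; 0 = DMSO median and -100 = no signal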
# rRNA inh HTS RFP = also measured in rRNA inh HTS; calls as there; RFP signal change, %; measured here: RFP humanized mutant strains;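 first replicate; 0 = DMSO median and -100 = no signal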
# * = called active by the depositor; i = inactive; / = not tested or not shown. A portion of the library; the hit share may differ from the screen's.
Structure | rRNA inh HTS | rRNA inh HTS OD600 | rRNA inh HTS RFP | HNF4A DNA FP | Ecoli growth | ALR inh | B2AR ag | FGF22 binding | UCH37 DUB inh
C#CCN1C(=O)S/C(=C\c2cc3c(cc2OC)OCO3)C1=O | 4 | 5 | 0.2 | 56 | 0.67 | -13 | -8 | i | 5.2
Cc1cccc(C)c1NC(=O)N1CCC(N2CCCCC2)CC1 | / | / | / | -4.6 | 0.72 | / | 1 | / | -0.5
Cc1ccccc1NC(=O)c1nc[nH]c1C(=O)NCc1ccccc1 | / | / | / | 1.1 | 0.68 | -1 | -3 | / | 1.5
O=C(Nc1ccc(Br)cc1)C1CCN(C(=O)c2ccco2)CC1 | -15 | -26 | 22 | 4.2 | 0.64 | -7 | -2 | i | 1.1
O=S(=O)(Nc1cccc(-n2cnnn2)c1)c1ccccc1C(F)(F)F | -4 | -11 | -3.4 | -1.6 | 0.71 | 56 | 8 | i | 1.5
Cc1cc(C(=O)Nc2ccc(F)cc2F)on1 | -2 | 5 | -1.8 | -0.4 | 0.69 | -2 | 12 | i | -0.1
C=CCN1c2ccccc2Sc2cnccc21 | -48 | -72 | -14 | -5.3 | / | / | / | i | /
COc1cccc(N2CCN(c3ccc4nnc(CCC(=O)Nc5cc(C)ccn5)n4n3)CC2)c1 | 1 | 4 | 0.0 | -1.6 | 0.71 | 58 | 13 | i | 2.6
CCOc1ccccc1N/C(=C(/C(Cl)=C(Cl)Cl)[N+](=O)[O-])n1cncn1 | -25* | 4.3* | 0.2* | 3.4 | / | -1 | -6 | i | /
CN1CCN(CCC(=O)Nc2ccc(F)c(F)c2)CC1 | / | / | / | 3.4 | 0.66 | -8 | -1 | / | 2.3
CCC(C)NC(=O)COCc1cc(-c2ccc3c(c2)OCO3)on1 (stereo not drawn) | 0 | 5 | 0.2 | 4.9 | 0.62 | 4 | -2 | i | 3.3
O=C(N/N=C/c1c(F)c(F)c(F)c(F)c1F)c1cc(-c2ccccc2)nc2ccccc12 | 2 | 11 | -0.7 | -1.8 | / | / | -4 | i | /
CCCCc1ccc(NC=C2C(=O)OC3(CCCCC3)OC2=O)cc1 | / | / | / | 2.4 | 0.68 | 2 | 2 | / | -48
O=C(Cn1ncc2c(=O)oc3ccccc3c21)N1CCC(N2CCCCC2)CC1 | 2 | 14 | 0.7 | -0.6 | 0.67 | / | 5 | i | 0.8
CN1C2C=C3C(C#N)=C(N)C(C#N)(C#N)[C@@H](c4ccc(Cl)cc4)[C@@H]3C1CC2 (stereo partly drawn) | / | / | / | -1.0 | 0.71 | -15 | 4 | / | -73
COc1ccc(CNc2ccc3c(c2)nc(C)n3C)cc1OC | -8 | 0 | -0.6 | 3.1 | 0.65 | 57 | -4 | i | -4.7

# Reprinted from the part before: 2 compounds, followed by the next part.
Structure | rRNA inh HTS | rRNA inh HTS OD600 | rRNA inh HTS RFP | HNF4A DNA FP | Ecoli growth | ALR inh | B2AR ag | FGF22 binding | UCH37 DUB inh
CN1C2C=C3C(C#N)=C(N)C(C#N)(C#N)[C@@H](c4ccc(Cl)cc4)[C@@H]3C1CC2 (stereo partly drawn) | / | / | / | -1.0 | 0.71 | -15 | 4 | / | -73
COc1ccc(CNc2ccc3c(c2)nc(C)n3C)cc1OC | -8 | 0 | -0.6 | 3.1 | 0.65 | 57 | -4 | i | -4.7
CCn1nc(NS(=O)(=O)c2cccc3nonc23)c2cc3ccc(C)cc3nc21 | / | / | / | 1.3 | 0.65 | 91* | 7 | / | 6.8
Cc1nc2ccccc2nc1OCc1cccc([N+](=O)[O-])c1 | 17 | 15 | -1.9 | -2.8 | 0.66 | -11 | -3 | i | 1.8
COc1ccccc1-n1cnnc1SCC(=O)Nc1cccc(S(=O)(=O)N2CCCCC2)c1 | 18 | 2 | -4.8 | / | 0.73 | -3 | / | i | 1.6
CC(C)CCN1C(=O)c2ccc(C(=O)Nc3ccc(O)cc3C(=O)O)cc2C1=O | -1 | 8 | -2.8 | 1.1 | 0.66 | 47 | -1 | i | -0.9
COc1ccccc1CNC(=O)c1cc(=O)c2ccccc2o1 | -9 | -8 | 1.9 | -1.8 | 0.68 | -2 | 4 | i | -3.0
O=C1NC(=Nc2ccc3ccccc3c2)S/C1=C/c1ccco1 | 11 | 14 | 6.8 | 11 | 0.75 | -17 | -9 | i | -1.4
Cc1ccc(C(=O)N(C)Cc2ccccc2)cc1S(=O)(=O)N1CCOCC1 | 3 | 0 | 0.7 | 0.5 | 0.68 | -15 | -5 | i | -1.5
CC(OC(=O)c1cc(=O)[nH]c2ccccc12)C(=O)NCc1ccccc1 (stereo not drawn) | 0 | 1 | 0.1 | -2.4 | 0.67 | -30 | 0 | i | -22
Cc1nc(CS(=O)(=O)c2ccc(Cl)cc2)cc(N2CCOCC2)n1 | / | / | / | -0.6 | 0.75 | -10 | -4 | / | 4.7
NS(=O)(=O)c1ccc(NC(=O)CN2CCN(S(=O)(=O)/C=C/c3ccccc3)CC2)cc1 | -7 | -3 | 1.6 | -1.3 | 0.68 | 1 | 2 | i | 0.6
Cc1ccc(N2CCN(S(=O)(=O)c3ccc(Cl)s3)CC2C)cc1 (stereo not drawn) | 6 | -31 | -4.8 | 4.3 | 0.71 | 6 | 0 | i | 0.6
O=C1CCc2cc(S(=O)(=O)N3CCC(C(=O)NCc4ccccc4Cl)CC3)ccc2N1 | 1 | 4 | 0.3 | -0.5 | 0.75 | 25 | 13 | i | 5.5
Cc1ccc(OCC(=O)OCc2c(C)noc2C)cc1C | -1 | -3 | -7.2 | 0.9 | 0.72 | -5 | -2 | / | 2.6
O=S(=O)(NCC1(N2CCOCC2)CCCCC1)c1ccc(Cl)cc1C(F)(F)F | -30 | -69 | -8.6 | -4.3 | 0.73 | -2 | -4 | i | 0.7
CC1=CC2(C)C(C3C(C)=CC2(C)C(=O)C3(C)O)C(C)(O)C1=O (stereo not drawn) | 3 | 24 | 0.6 | -1.9 | 0.7 | / | -7 | / | -2.3
CCC[C@@H](CN1CCC[C@H]1CN1C(N)=NC[C@@H]1Cc1ccccc1)N1C[C@@H]([C@H](C)CC)N(CCCC2CCCC2)C1=N | / | / | / | 8.4 | / | 73 | 25 | / | -0.1

# Continued:
Compound	rRNA inh HTS	rRNA inh HTS OD600	rRNA inh HTS RFP	HNF4A DNA FP	Ecoli growth	ALR inh	B2AR ag	FGF22 binding	UCH37 DUB inh
N#C/C(=C\N1CCOCC1)C(N)=O	6	8	-1.4	1.0	0.69	-10	-6	i	7.3
CC(=O)OCCn1c(Br)nc2c1c(=O)[nH]c(=O)n2C	/	/	/	0.0	0.66	/	3	/	-1.0
CCOc1cc(N2CCOCC2)c(OCC)cc1NC(=O)CN1CCCC(C)C1 (stereo not drawn)	5	0	-3.0	-1.5	0.64	8	2	i	2.9
O=C(COc1ccc(S(=O)(=O)N2CCCCC2)cc1Cl)N1CCCC1	1	0	0.4	-3.1	0.67	-2	-9	i	5.4
O=C(CNC(=O)Cc1ccccc1)N=Nc1c(O)[nH]c2ccc(Br)cc12	-2	10	0.3	-1.5	0.66	11	-4	i	6.9
NC(=O)C1CCN(C(=O)CCCCCn2c(=O)[nH]c3ccsc3c2=O)CC1	/	/	/	-1.0	0.71	1	-9	/	2.1
Cc1ccc(NS(=O)(=O)c2ccc(-n3cccn3)cc2)nc1	11	13	-0.6	1.7	0.69	-1	-4	i	-21
Cc1cccc(C)c1NC(=O)C(c1ccccc1)N1CC(=O)Nc2ccccc21 (stereo not drawn)	-11	9	9.2	-1.0	0.72	-6	-2	i	2.7
CCOC(=O)c1[nH]nc(-c2cc(CC)c(O)cc2O)c1-c1cscn1	-17	-15	-9.1	4.0	0.69	31	12	i	4.7
CS(=O)(=O)N1CCCC(C(=O)Nc2ccc(Br)cc2F)C1 (stereo not drawn)	3	5	-3.4	4.7	0.73	1	0	i	0.7
CC1CCCCN1C(=O)CSc1nnc2ccccn12 (stereo not drawn)	/	/	/	0.5	0.68	3	-4	i	-1.9
O=S(=O)(c1ccc2ccccc2c1)n1cnc2ccccc21	/	/	/	-4.6	0.7	-17	-11	/	8.3
Cc1nn(CC(=O)N2CCCC2)c(=O)c2cc3cc(F)ccc3n12	0	-1	-1.8	0.2	0.71	-2	-15	i	-12
CC(=O)N(C)c1ccc(N=Cc2cc3c(cc2[N+](=O)[O-])OCO3)cc1	2	12	3.1	-1.2	0.68	22	-8	i	5.7
COc1ccccc1C(=O)Nc1ccc(-c2nnn(CC(=O)N3CCN(C(=O)c4ccco4)CC3)n2)cc1	11	6	1.7	1.3	0.72	-8	-14	i	3.6
CSc1n[nH]c(=S)n1N	5	13	-4.3	-1.6	0.71	-14	5	i	2.1
CC(Cc1ccccc1)NC(=O)c1cc([N+](=O)[O-])ccc1Cl (stereo not drawn)	-2	5	-1.0	-0.6	0.62	6	-1	i	2.9
CCn1c(SCC(=O)Nc2cc(C)on2)nnc1-c1cccnc1	4	7	-3.2	-4.5	0.64	0	-5	i	-1.8
O=C(NCSc1ccnc(SCNC(=O)c2ccc(F)cc2)n1)c1ccc(F)cc1	/	/	/	-3.1	0.73	42	7	/	4.7
CCOC(=O)C1=CN(CC)S(=O)(=O)NC1CCc1ccccc1 (stereo not drawn)	-11	-20	-1.1	-1.3	0.7	/	-6	i	1.7

# Profiles, quoted from the list. Values in the order: rRNA inh HTS | rRNA inh HTS OD600 | rRNA inh HTS RFP | HNF4A DNA FP | Ecoli growth | ALR inh | B2AR ag | FGF22 binding | UCH37 DUB inh
# CC(=O)N(C)c1ccc(N=Cc2cc3c(cc2[N+](=O)[O-])OCO3)cc1 as listed: 2 | 12 | 3.1 | -1.2 | 0.68 | 22 | -8 | i | 5.7
# O=C(NCSc1ccnc(SCNC(=O)c2ccc(F)cc2)n1)c1ccc(F)cc1 as listed: / | / | / | -3.1 | 0.73 | 42 | 7 | / | 4.7
# Cc1nn(CC(=O)N2CCCC2)c(=O)c2cc3cc(F)ccc3n12 as listed: 0 | -1 | -1.8 | 0.2 | 0.71 | -2 | -15 | i | -12

# More entries follow.
Compound	rRNA inh HTS	rRNA inh HTS OD600	rRNA inh HTS RFP	HNF4A DNA FP	Ecoli growth	ALR inh	B2AR ag	FGF22 binding	UCH37 DUB inh
O=S(=O)(NCc1cccs1)c1cccc(S(=O)(=O)N2CCCCC2)c1	/	/	/	5.8	0.76	-2	4	/	2.8
COc1cccc(C(=O)Oc2ccc3c(C)cc(=O)oc3c2C(C)=O)c1	/	/	/	3.2	0.71	20	4	/	-25
NC(=O)c1ccsc1NC(=O)C1CC1	5	7	-1.3	-3.4	0.66	20	-4	i	3.1
CC(C)c1ccc(OCC(=O)N2CCCCCC2)c(Br)c1	-41	-64	-5.2	-2.8	0.67	/	-7	i	0.5
CCn1c(SCC(=O)Nc2cccc(OC)c2)nnc1-c1ccc(Cl)cc1	/	/	/	-1.0	0.64	-5	-8	/	-1.8
CC(=O)N1CCc2cc(S(=O)(=O)NCCC(=O)Nc3cccc(C)c3)ccc21	/	/	/	-1.7	0.69	-5	7	/	-0.1
COc1ccc(Cl)cc1NC(=O)C(C)Sc1n[nH]c(N)n1 (stereo not drawn)	/	/	/	1.6	0.76	0	1	/	2.2
Cc1ccccc1OCC(=O)NCCCNC(=O)c1cccnc1	-3	-6	2.3	-2.7	0.64	-3	-12	i	3.9
Cc1ccc2c(c1)C1NC(=S)NC(C)(O2)C1C(=O)Nc1ccc(Cl)cc1 (stereo not drawn)	/	/	/	-3.5	0.69	-2	9	/	3.1
CNC(=O)C1(CC(C)C)C=CCN1C(C)=O (stereo not drawn)	7	2	12	3.2	0.78	4	-2	i	-0.3
COc1ccc(C2C3C(=O)N(N(C)c4ncc(C(F)(F)F)cc4Cl)C(=O)C3ON2C)cc1 (stereo not drawn)	6	4	-0.9	-3.8	0.67	-18	-5	i	1.3
